Screens as filed in PubChem BioAssay.
E coli growth: E. coli growth inhibition, primary screen, OD600 | Escherichia coli growth, 23 h; stronger effect = lower value | OD600 absorbance (concentration not given with the values) | 330,000 compounds, 0.21% hits | AID 1053175, 2014;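 active means OD600 absorbance below the run mean of sample wells minus 3.6 SD, in any replicate, cut at about 0.56 in these data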;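 further: stock transfer was 300 nL into about 60 µL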
* marks the source's active call; other numbers are inactive results; & = joins results of further samples. This is a subset; the hit share may differ from the screen's.

SMILES	E coli growth
Cc1ccc(S(=O)(=O)N=C(c2ccc(Cl)cc2)N2CCOCC2)cc1	0.782
CC(=NNC(=O)Cn1nc(C)cc1C)c1ccc([N+](=O)[O-])cc1	0.688
O=C(NN=Cc1ccc2c(c1)OCCO2)c1ccncc1	0.692
O=S1(=O)CCOCC(Cc2ccccc2)N1Cc1ccccc1 (stereo unspecified)	0.712
Cc1cccc2cc(C=NNC(=O)CN3CCOCC3)c(Cl)nc12	0.746
CCN(CC)C(=O)C1CCCN(c2ccc([N+](=O)[O-])cc2C=NNC(=O)c2cccc([N+](=O)[O-])c2)C1 (stereo unspecified)	0.716
CCNC(=S)NN=Cc1ccc(-c2ccccc2)o1	0.598
O=[N+]([O-])c1ccc(C=Nn2c(C3CCCCC3)n[nH]c2=S)cc1	0.664
O=C(NN=Cc1ccc(-c2cccc([N+](=O)[O-])c2)o1)c1ccc([N+](=O)[O-])cc1	0.684
N#Cc1ccc(C=NNC(=S)Nc2ccc(S(=O)(=O)N3CCOCC3)cc2)cc1	0.753
Cc1ccccc1C=N/N=C1/NC(=O)CCS1	0.672
CCOC(=O)c1cc(C)sc1N=CC1C(=O)CC(C)(C)CC1=O	0.658
COc1ccc(CNC(=O)CC(C)=NNC(=O)COc2ccccc2)cc1	0.712
CCOC(=O)NN=C1CC(C)CC(C)(C)C1 (stereo unspecified)	0.631
CC(=O)N(N=Cc1cccc(C)c1)c1nc(-c2ccc(Br)cc2)cs1	0.74
COc1ccc(Oc2ccccc2C=NO)cc1	0.682
S=C(NCc1ccco1)NN=Cc1ccc(Cl)cc1	0.718
COC(=O)c1ccc(COc2ccc(C=NNc3cccc(C(=O)O)c3)cc2)cc1	0.66
COc1ccc(S(=O)(=O)Nc2cccc3c2OC(CN(C)S(=O)(=O)c2ccc(Cl)cc2)C(C)CN(C(C)CO)C3=O)cc1 (stereo unspecified)	0.711
COC(=O)C1=C(C(=O)OC)C2N(C)c3ccc(OC)cc3[C@@]23CC(C(=O)OC)N(C(=O)C2CCC2)C3=N1 (stereo partly specified)	0.666
CC(NC(=O)c1[nH]cnc1C(=O)Nc1ccc(Cl)cc1)c1ccccc1 (stereo unspecified)	0.698&0.688
CC(=NOC(=O)Nc1ccc(Cl)cc1)c1ncc(C(F)(F)F)cc1N1CCOCC1	0.699
COc1cccc(C=NNc2nnc(C)n2N)c1OCc1ccccc1Cl	0.708
Cn1c(C=NO)nc2ccccc21	0.675
CNC(=S)NN=Cc1cn(CCOc2ccccc2OC)c2ccccc12	0.682
Cc1cccc(OCC(=O)NCC(=O)NN=Cc2cccs2)c1	0.674
C#CCCc1cocc1C=[N+]([O-])c1ccc(C(=O)OCC)cc1	0.7
Br/C(C=NN1CCN(Cc2ccccc2)CC1)=C\c1ccccc1	0.712
O=C(COc1ccccc1F)NN=C1CCCc2ccccc21	0.628
Cc1cc2ncn(N=Cc3cc(Br)ccc3O)c2cc1C	0.679

Reprinted from the part before: 2 entries, followed by the next part.
SMILES	E coli growth
O=C(COc1ccccc1F)NN=C1CCCc2ccccc21	0.628
Cc1cc2ncn(N=Cc3cc(Br)ccc3O)c2cc1C	0.679
c1ccc(CC2CNCCN2CCc2cccc3ccccc23)cc1 (stereo unspecified)	0.644
COc1cccc(C=NNC(=O)c2ccccc2)c1OS(=O)(=O)c1ccccc1	0.696
O=C(C(=NNc1ccc([N+](=O)[O-])cc1)Sc1nnnn1-c1ccccc1)c1ccccc1	0.642
C=CCNC(=O)C(=Cc1ccccc1OCC)NC(=O)c1ccccc1	0.713
O=[N+]([O-])c1cc(S(=O)(=O)N=C(c2ccccc2)N2CCOCC2)ccc1Cl	0.704
CC(CC(=O)Nc1ccc(Cl)cc1Cl)=NNC(=O)C(=O)N1CCCC1	0.67
CCC(C)Sc1ccc(C2N[C@@](C)(C(=O)OC)C3C(=O)N(C)C(=O)C23)cc1 (stereo partly specified)	0.678
COc1cccc2c(SCC(=O)NN=Cc3ccc(O)c(O)c3)cc(C)nc12	0.636
Cc1ccc(C(=O)N2C3CN(C)C(=O)[C@@]2(C)C2C(=O)N(Cc4ccccc4)C(=O)C32)cc1 (stereo partly specified)	0.682
CC(=O)Nc1ccccc1NC(=O)CC(C)=NNC(=O)c1ccc([N+](=O)[O-])c(Cl)c1	0.703
O=C(NN=Cc1cc([N+](=O)[O-])ccc1N1CCOCC1)c1ccccn1	0.741
COc1cccc(C=NNc2ccc([N+](=O)[O-])cc2)c1O	0.674
COc1ccc2c(c1)C1C(CO2)C(c2ccccc2)[C@]2(C)C(=O)NC(C)C(=O)N12 (stereo partly specified)	0.678
O=C(Nc1ccccc1)C1=CC(c2ccccc2)CC(OCCCCO)O1 (stereo unspecified)	0.709
COc1cccc(C2CC=C(C(=O)O)C(c3ccc(Cl)cc3)N2S(=O)(=O)c2ccc(C)cc2)c1 (stereo unspecified)	0.599
Cc1cc(C=NNC(=O)c2ccncc2)c(C)n1-c1ccccc1	0.697
ON=Cc1cn(-c2ccc(Cl)cc2)nn1	0.633
CCOc1ccc(Cl)cc1C1=CC(=O)CC(c2ccc(OC)cc2)C1 (stereo unspecified)	0.722
CC(Cc1ccccc1)=NNC(=O)CNC(=O)c1cccc(F)c1	0.613
C=C1C(OC(C)=O)CC[C@]2(C)C1CC1CC(OC(C)=O)C(C)=C(C(OC(C)=O)C2OC(C)=O)C1(C)C (stereo partly specified)	0.664

Some of the entries above, reformatted.
SMILES | E coli growth
O=C(NN=Cc1cc([N+](=O)[O-])ccc1N1CCOCC1)c1ccccn1 | 0.741
C=C1C(OC(C)=O)CC[C@]2(C)C1CC1CC(OC(C)=O)C(C)=C(C(OC(C)=O)C2OC(C)=O)C1(C)C (stereo partly specified) | 0.664

Other entries:
SMILES	E coli growth
CC1(C)SC2C(NC(=O)C(N)c3ccc(O)cc3)C(=O)N2C1C(=O)O (stereo unspecified)	0.66
O=C(NN=C/C=C/c1ccco1)C(O)c1ccccc1 (stereo unspecified)	0.725
CCn1c(C)nc2cc(C(=O)NN=Cc3cccc(OC)c3O)ccc21	0.647
CCc1ccc(NC(=Nc2nc(C)cc(C)n2)NC(C)=O)cc1	0.678
Brc1ccc(C=NNc2ccccn2)cc1	0.683
CCN(CC)S(=O)(=O)c1ccc(NN=Cc2ccc(O)cc2)nc1	0.691
COc1ccc(C=N/N=C2/NC(=O)C(CC(=O)NC(C)C)S2)cc1 (stereo unspecified)	0.738
CCOC1OC(C(=O)NC2CC2)=CC(C2CC2)C1CCCO (stereo unspecified)	0.681&0.647
COC(=O)C1=C(C)N(Cc2ccccc2)C(=NCCc2ccccn2)NC1c1cccc(C(F)(F)F)c1 (stereo unspecified)	0.645
CC(=O)C1=C(C)N(Cc2ccccc2)C(=O)NC1CCc1ccccc1 (stereo unspecified)	0.686
Cc1nc2ccccc2c(=O)n1N=Cc1ccncc1	0.673
O=C1C2C(c3ccc(Cl)cc3)N3C(=O)N(c4cccc(Br)c4)C(=O)[C@@]3(Cc3ccc(Cl)cc3)C2C(=O)N1C1CCCCC1 (stereo partly specified)	0.726
CCC(C=NNC(=O)C1COc2ccccc2O1)CC (stereo unspecified)	0.697
Oc1ccccc1C=Nn1c(-c2cccs2)n[nH]c1=S	0.689
CC(=NNC(=O)Nc1ccccc1)c1ccccc1	0.663
O=[N+]([O-])c1ccc(-c2ccc(C=NNc3nc(N4CCCCC4)nc(N4CCCCC4)n3)o2)cc1	0.69
COc1ccc2cc(C3=CC(=O)CC(c4ccc5c(c4)OCO5)C3)ccc2c1 (stereo unspecified)	0.736
CN1CCN(C(=O)C2=CC(c3coc4ccccc4c3=O)CC(OCCCCO)O2)CC1 (stereo unspecified)	0.67&0.666
CCC(=O)Nc1cccc(C2=NOC3(C2)CC(C(N)=O)N(C(=O)CC#N)C3)c1 (stereo unspecified)	0.699
COc1ccc(-c2n[nH]c(=S)n2N=C/C=C/c2ccccc2OC)cc1	0.726

Laid out differently: results already given.
SMILES | E coli growth
N#Cc1ccc(C=NNC(=S)Nc2ccc(S(=O)(=O)N3CCOCC3)cc2)cc1 | 0.753
Cc1ccccc1C=N/N=C1/NC(=O)CCS1 | 0.672
CCOC(=O)c1cc(C)sc1N=CC1C(=O)CC(C)(C)CC1=O | 0.658
COc1ccc(CNC(=O)CC(C)=NNC(=O)COc2ccccc2)cc1 | 0.712
CCOC(=O)NN=C1CC(C)CC(C)(C)C1 (stereo unspecified) | 0.631

(continued)
SMILES	E coli growth
CC(=NO)c1ccc(Oc2cnccn2)cc1	0.621
CC(=NNS(=O)(=O)c1cccc([N+](=O)[O-])c1)c1ccncc1	0.71
CC(=NNc1ccc(S(=O)(=O)N2CCCCC2)cn1)c1cccc(Br)c1	0.709
O=C(NN=C1CCc2ccccc21)c1ccccc1O	0.621
CNC(=O)C1CC(=O)N/C(=N/N=C(C)c2cccs2)S1 (stereo unspecified)	0.728
CS(=O)(=O)N(CC(=O)NN=Cc1cccs1)c1cccc(Cl)c1Cl	0.732
O=C(C1=CC(c2ccc(C(F)(F)F)cc2)CC(OCc2ccc(CO)cc2)O1)N1CCN(Cc2ccccc2)CC1 (stereo unspecified)	0.694&0.69
CCCC(=C1c2ccccc2C(=O)N1c1ccccc1)c1ccc(OC2CCCCO2)cc1 (stereo unspecified)	0.705
CC(C)[C@H](N)C(=O)NC[C@H](CC(=O)NCC1CCC(C(=O)O)CC1)c1ccc(Cl)cc1 (stereo partly specified)	0.678
CN(C)c1ccnc(-n2cccc2C=NO)c1C#N	0.693

Looked up by structure from the list above, 7 records:
SMILES	E coli growth
O=C(C1=CC(c2ccc(C(F)(F)F)cc2)CC(OCc2ccc(CO)cc2)O1)N1CCN(Cc2ccccc2)CC1 (stereo unspecified)	0.694&0.69
CCCC(=C1c2ccccc2C(=O)N1c1ccccc1)c1ccc(OC2CCCCO2)cc1 (stereo unspecified)	0.705
CC(=NO)c1ccc(Oc2cnccn2)cc1	0.621
CN(C)c1ccnc(-n2cccc2C=NO)c1C#N	0.693
O=C(NN=C1CCc2ccccc21)c1ccccc1O	0.621
CC(=NNc1ccc(S(=O)(=O)N2CCCCC2)cn1)c1cccc(Br)c1	0.709
CS(=O)(=O)N(CC(=O)NN=Cc1cccs1)c1cccc(Cl)c1Cl	0.732

Following part.
SMILES	E coli growth
O=C(O)c1cccc(NC(=S)NN=Cc2c[nH]c3ccccc23)c1	0.711
CCn1ncc(C=NNC(=O)Cc2ccc([N+](=O)[O-])cc2)c1C	0.674
CC(=NN1C(=O)c2ccccc2NC1c1ccccc1)c1ccccc1O (stereo unspecified)	0.679
O=C(CSc1nc2ccccc2n1Cc1ccc(Cl)cc1)NN=Cc1ccccc1C(=O)O	0.646
Clc1ccccc1-c1ccc(C=Nn2cnnc2)o1	0.66
Cc1ccc(C(=NO)c2oc3c(C)c4oc(=O)cc(C)c4cc3c2C)cc1	0.689
O=C(O)c1ccc(NN=Cc2c(F)cccc2Cl)cc1	0.677
COCCNC(=O)C(=O)NN=C(C)CC(=O)Nc1ccc2c(c1)OCO2	0.682
CC(=NNC(=O)Cn1nc(C)c([N+](=O)[O-])c1C)c1ccco1	0.649
COCc1cc(C)nc(OCC(=O)NN=Cc2cc(C)n(-c3c(C)cccc3C)c2C)c1C#N	0.694
Oc1ccc(C=NNc2cc(N3CCOCC3)nc(N3CCOCC3)n2)cc1	0.672
CC(/C=C/c1ccccc1)=NNC(=O)C1CC1(C)c1ccccc1 (stereo unspecified)	0.7
COc1cccc(NC(=O)C(=O)NN=Cc2cc(C)n(-c3ccc(Cl)c(Cl)c3)c2C)c1	0.724
Cc1c(C=NO)sc2ccccc12	0.67
O=[N+]([O-])c1cccc(S(=O)(=O)NN=Cc2ccc3c(c2)OCO3)c1	0.701
Cc1cc(C(=O)O)ccc1-c1ccc(C=Nn2cnnc2)o1	0.682
O=C(NN=Cc1c[nH]c2ccc(Br)cc12)C1CC1	0.661
COc1ccccc1NC(=S)NN=C1CC(C)(C)Oc2ccc(O)cc21	0.727
Cc1cc(C)nc(SCC(=O)NN=Cc2sccc2C)n1	0.679
CCON=C(C)c1c(O)c2ccccc2n(C)c1=O	0.702
CC(=NNC(=O)CCn1nnc2ccccc21)c1cccs1	0.642
Nc1nonc1-n1nnc(C(=O)NN=Cc2ccccc2)c1CN1CCc2ccccc21	0.701
COc1ccc(C=C(C#N)C(=O)Nc2cccc(C)c2C)cc1C(=O)O	0.663
COc1cc(C=NNC(=O)CCn2nc(C)cc2C)ccc1O	0.658
Cc1cccc(C(=O)ON=Cc2c(Cl)n(C)c3ccccc23)c1	0.746
O=C(COc1ccccc1)NCC(=O)NN=Cc1ccc(Br)cc1	0.697
CON=C(COc1ccc(F)cc1)c1ccc(OC)cc1	0.617
O=C(C1=CC(C2CC2)CC(OCc2ccc(CO)cc2)O1)N1CCN(Cc2ccccc2)CC1 (stereo unspecified)	0.682&0.692
CN1CCc2c(sc(N=Cc3c[nH]c4ccccc34)c2C(N)=O)C1	0.62
Cc1ccc(S(=O)(=O)NN=Cc2ccccc2O)cc1	0.713
C[C@]1(OC(=O)C=Cc2ccccc2)CC(O)[C@]2(O)C=COC(OC3OC(CO)C(O)C(O)C3O)C21 (stereo partly specified)	0.702
O=C(NN=Cc1cc(Br)c(O)c(Br)c1O)c1cccnc1	0.621
CN(C)CCCNC(=O)c1ccc(C=NO)nc1	0.644
CCOc1ccc(-c2c(C(=O)NN=Cc3ccncc3)nnn2-c2nonc2N)cc1	0.692
CCC1SC(=NN=Cc2ccco2)N(Cc2ccccc2)C1=O (stereo unspecified)	0.677
Oc1ccc(CC2CNCCN2CCCCC2CCCCC2)cc1 (stereo unspecified)	0.567&0.598
C=CCc1c(C)nc(C)nc1NN=Cc1ccc(N(C)C)cc1	0.702
CC(C)CC(NC(=O)c1[nH]cnc1C(=O)Nc1ccc(CNC(=O)OC(C)(C)C)cc1)C(=O)OCc1ccccc1 (stereo unspecified)	0.74
COc1cc(CCCN2CCNCC2Cc2ccc(O)cc2)cc(OC)c1OC (stereo unspecified)	0.662&0.715
CC(=NNc1nc(C(C)(C)C)cs1)c1ccc(O)cc1	0.653
O=C(COc1ccc2ccccc2c1)NN=CC1CC=CCC1 (stereo unspecified)	0.658
CN1C(=O)C2C(C=Cc3ccccc3)N3C(=O)CN(CCO)C(=O)[C@@]3(Cc3ccccc3)C2C1=O (stereo partly specified)	0.669
Cc1cccc(NC(=O)c2nc[nH]c2C(=O)NC(C)C(=O)OCc2ccccc2)c1 (stereo unspecified)	0.669
